Mtb growth = M. tuberculosis H37Rv growth inhibitors, H37Rv strain (AID 1626). M. tuberculosis H37Rv growth inhibition; higher % means a stronger effect. inhibition, % at 10 µM, or IC50 in µM where a hit was titrated. 220,000 tested, 0.95% active;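 active = confirmed in a dose series; inconclusive = inhibition above 80% but not taken into the dose series; inactive = below 80% or under 30% at every dose of the series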;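 also: bacteria incubated seven days before Alamar blue readout; 0% = bacteria only wells and 100% = bacteria with antibiotic wells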
RecA intein inh = Mtb RecA intein splicing inhibitors, primary screen, biochemical, fluorescence, HTS | AID 2221, 2009 | 290,000 tested, 0.75% active | inhibition, %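 (about 9 µM by stock and volumes)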 | cell-free RecA intein splicing; in the data active = inhibition above about 30%; inconclusive = no clear call, values can overlap the other calls;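 also: 0% = vehicle wells and 100% = reference inhibitor control wells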
Target sequence (P9WHJ3 whole entry, looked up): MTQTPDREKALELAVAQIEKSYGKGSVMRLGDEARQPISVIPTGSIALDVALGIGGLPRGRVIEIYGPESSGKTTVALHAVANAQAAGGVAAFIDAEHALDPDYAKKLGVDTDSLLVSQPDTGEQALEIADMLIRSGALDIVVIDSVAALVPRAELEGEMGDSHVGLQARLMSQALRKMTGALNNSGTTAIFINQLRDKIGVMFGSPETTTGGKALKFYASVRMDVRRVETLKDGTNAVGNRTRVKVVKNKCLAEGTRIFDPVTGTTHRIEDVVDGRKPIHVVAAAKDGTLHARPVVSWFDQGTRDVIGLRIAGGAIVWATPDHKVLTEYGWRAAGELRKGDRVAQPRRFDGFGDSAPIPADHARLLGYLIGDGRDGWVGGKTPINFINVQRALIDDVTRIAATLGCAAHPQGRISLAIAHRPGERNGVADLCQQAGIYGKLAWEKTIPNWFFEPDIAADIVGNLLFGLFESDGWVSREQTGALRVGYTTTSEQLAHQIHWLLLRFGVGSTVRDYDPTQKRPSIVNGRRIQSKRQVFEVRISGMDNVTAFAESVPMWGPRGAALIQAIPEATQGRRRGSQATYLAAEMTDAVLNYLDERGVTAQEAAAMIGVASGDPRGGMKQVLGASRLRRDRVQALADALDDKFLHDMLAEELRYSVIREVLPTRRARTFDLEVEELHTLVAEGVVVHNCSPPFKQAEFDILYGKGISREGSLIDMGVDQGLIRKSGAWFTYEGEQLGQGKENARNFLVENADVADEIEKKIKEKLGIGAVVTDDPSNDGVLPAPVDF
YopH inh = YopH tyrosine phosphatase inhibitors, primary screen, biochemical, fluorescence Ex485/Em525; YopH tyrosine phosphatase [Yersinia enterocolitica]; inhibition, %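 (about 10 µM by stock and volumes)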; 140,000 tested, 0.16% active; AID 898, 2007;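 active = inhibition of 50% or more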;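 also: controls were vehicle for no effect and minimum signal wells for full effect; inactives centre near -20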
Mtb betalactam = beta-lactam sensitization of Mtb H37Rv, H37Rv; M. tuberculosis H37Rv growth with meropenem, percent inhibition; hits of this screen are not shown here; inhibition, % at 25 µM; 330,000 tested, 0.27% active;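 active = about 74% or more and at least 40 points above the plate without the antibiotic, then above 30% in a dose series; inconclusive = first-round hits that could not be retested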;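 also: growth measured after seven days incubation then overnight dye step; 0% = bacteria only wells and 100% = bacteria with antibiotic; twin plates without the antibiotic show which effects depend on it; some results filed as inactive read as strong as hits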
Arbovirus anti = antivirals against arbovirus infection, primary screen, cell-based, full library, 10K replicate subset | arbovirus infection cell-based antiviral screen | inhibition, % at 10 µM | 200,000 tested, 0.37% active | AID 1251, 2008;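 active = inhibition from about 30%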;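 also: bluetongue infection of BSR cells; cell survival read as ATP light after 72 h; 0% = infected wells without compound and 100% = uninfected wells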
Arbovirus anti repeat = second read-out of Arbovirus anti, no call of its own (marks repeat the call); inhibition, %; measured here: 10K subset replicate screen; many hits read low in the repeat;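 first of two repeat runs on a subset; 0% = infected and 100% = uninfected wells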
An asterisk follows results filed as active; ? = inconclusive; / = not tested or not shown. Some of the compounds tested; the hit share may differ from the screen's.

SMILES | Mtb growth | RecA intein inh | YopH inh | Mtb betalactam | Arbovirus anti | others
O=C(OCC1CC(c2ccccc2Cl)=NO1)c1ccc(Br)cc1 (configuration not stated) | -9.7% | 11.6 | -24.2 | ? | 0.1
CC(=O)N1CCc2cc(S(=O)(=O)NC3CCCc4ccccc43)ccc21 (configuration not stated) | 3.8% | / | -12.6 | -4.8 | 3.0
COc1ccc(C2=Nn3c([n+](C)c4ccccc43)SC2)cc1 | 2.2% | -0.8 | / | -6.7 | -10.9
CCC(C)NC(=O)c1cc(-c2cccs2)nc2ccccc12 (configuration not stated) | / | -0.1 | / | -2.4 | /
CCOC(=O)Cc1nn(CC)c(=O)c2ccccc12 | -4.3% | -3.8 | / | -1.1 | -1.5
CCOC(=O)CN1C(=O)/C(=C/c2c(F)cccc2Cl)Oc2ccccc21 | / | 13.5 | / | 88.3 | /
O=C(Nc1ccc(CN2CCOCC2)cc1)c1cccc(F)c1 | -5.0% | 0.1 | -10.5 | 0.6 | -1.3
CC1CN(C(=O)CSc2nnc(-c3ccncc3)n2-c2ccccc2)CC(C)O1 (configuration not stated) | -12.4% | -0.8 | -18.7 | 0.7 | 5.3
CS(=O)(=O)NNC(=O)c1csc(Cc2c(Cl)sc3ccc(Cl)cc23)n1 | -3.8% | -7.9 | / | 0.1 | /
Cc1ccc(CN2C(=O)CSC2c2ccccc2F)cc1 (configuration not stated) | / | 4.9 | / | 7.9 | /
CCn1c(SCC(=O)Nc2ccc(F)cc2)nnc1-c1cnccn1 | / | -1.0 | / | 0.6 | /
COc1cc(-c2nc3ccc(N4CCN(C)CC4)cc3[nH]2)cc(OC)c1OC | -5.0% | -7.7 | / | 6.1 | -10.8
Cc1[nH]nc2c1C(c1cccs1)C1=C(CC(C)(C)CC1=O)N2 (configuration not stated) | 6.8% | -4.3 | / | -3.6 | 7.7
COc1ccc(S(=O)(=O)N(C)CC(=O)NC2CCCCC2)cc1Cl | -2.2% | -1.9 | -11.0 | -2.5 | -1.4
CC(=O)Nc1ccc(/C=N/NC(=O)c2cc(-c3ccco3)nc3ccccc23)cc1 | -5.0% | -0.3 | / | 2.5 | /
COc1cc2c(cc1OC)CN(C(=O)/C=C/c1cccs1)CC2 | -3.3% | -1.7 | / | -0.2 | /
CCOc1ncccc1C(=O)Nc1ccc(-c2ccc3nnc(C)n3n2)cc1 | 6.6% | -2.6 | / | 64.0 | 19.9
CCOC(=O)c1c(C)[nH]c(C(=O)CN2C(=O)C(=O)N(CC(C)C)C2=O)c1C | 3.4% | -1.9 | / | 1.2 | 7.2
O=C(O)/C=C/c1ccc(S(=O)(=O)N(CCO)CCO)cc1 | -7.0% | -1.3 | / | -2.1 | 12.2
CC(Oc1ccc(C(C)(C)C)cc1)C(=O)NC1CC(C)(C)NC(C)(C)C1 (configuration not stated) | / | -3.4 | / | 1.2 | /
CCN(CC)CCCNC(=S)N1CCn2c(nc3ccccc32)C1 | 5.4% | -1.1 | -4.7 | 8.3 | 11.7
O=c1cc(CN2CCCCCC2)nc2sccn12 | 6.9% | -0.9 | / | -1.2 | 5.3
COc1cc2c(cc1OC)C(C(=O)NCCN1CCOCC1)C1c3ccccc3CCN1C2=O (configuration not stated) | / | -3.0 | -36.7 | -3.1 | 10.2
O=C(NCc1ccccc1F)c1ccc2ccccc2n1 | / | 3.1 | / | 4.7 | /
Cc1ccc(-c2cc(-c3cccs3)[nH]n2)c(O)c1 | 1.9% | 7.8 | -9.0 | 6.5 | 26.3
O=C(CCCn1c(SCC(=O)Nc2ccccc2C(F)(F)F)nc2ccccc2c1=O)NCC1CCCO1 (configuration not stated) | / | 0.7 | / | -3.2 | /
COC(=O)CN(C(=S)Nc1ccc(Cl)cc1)C1CC(=O)N(c2ccc(OC)cc2)C1=O (configuration not stated) | -4.0% | 1.8 | -35.3 | -4.6 | 3.5
COc1ccc(NS(=O)(=O)c2cc(OC)ccc2NC(=O)c2cc(C)oc2C)cc1 | -2.2% | -1.9 | -33.5 | 42.4 | -14.9
Cc1cc(NC(=O)CCC(=O)N(CCC(C)C)C(C(=O)NC2CCCC2)c2cccnc2)no1 (configuration not stated) | -6.7% | -0.8 | 3.4 | 5.0 | 1.2
COc1ccc(N(C(=O)CNC(=O)c2cccs2)C(C(=O)NC2CCCC2)c2ccncc2)cc1 (configuration not stated) | / | 0.5 | / | 9.2 | /
Cn1c(CO)cnc1SCC(=O)c1ccc(F)cc1 | / | 0.7 | / | -3.9 | /
C/C(=N\NC(=O)c1ccncc1)c1cc2ccccc2o1 | ? | -1.8 | / | 97.7 | -4.3
Cc1cccc(NC(=O)N2CCCC2C(=O)NCc2cccs2)c1 (configuration not stated) | 0.4% | -1.8 | 4.9 | -12.0 | -3.0
COc1ccccc1-c1c(C(F)(F)F)oc2cc(OCC(=O)Nc3ccccc3C(F)(F)F)ccc2c1=O | -5.2% | -0.1 | -21.0 | -3.9 | 0.8
CC1=NN(c2ccccc2)C(=O)C1N=Nc1ccc(S(N)(=O)=O)cc1 (configuration not stated) | -4.7% | 2.8 | / | -0.6 | /
COc1ccc(/C=N/N2C(=O)C3C4C=CC(C4)C3C2=O)cc1[N+](=O)[O-] (configuration not stated) | -3.8% | 0.0 | / | 3.5 | 10.0
COc1ccc(CCNC(=O)CSc2ccc(-c3ccco3)nn2)cc1OC | 4.5% | 5.6 | / | -4.9 | 5.0
O=C(Nc1ccc(Cc2ccncc2)cc1)C1CCC(N2C(=O)C3CCCCC3C2=O)CC1 (configuration not stated) | 3.4% | -1.2 | / | 1.4 | -16.9
CCOC(=O)/C(C#N)=C1/SC(CCO)C(=O)N1c1ccccc1 (configuration not stated) | -11.2% | 1.9 | -48.0 | -5.8 | 1.1
COc1cc(NC(=O)C2CCCCN2)ccc1OCC(C)C (configuration not stated) | 8.0% | -7.3 | -13.2 | -4.7 | 1.0
COc1ccc2c(ccc[n+]2CC(=O)c2ccccc2)c1 | / | 2.4 | / | -3.6 | /
c1ccc(C2[C@H]3CN(Cc4cccnc4)[C@H](c4ccccc4)C34CC2(c2ccccc2)C4)cc1 (some centres not stated) | 10.2% | 9.9 | / | 5.8 | /
CC(=O)NN1C(=O)/C(=C\c2ccc(C)cc2)SC1=S | -5.3% | / | -49.0 | -13.6 | -0.5
Cc1ccc(Oc2ccccc2/C=C2\SC(=O)N(C)C2=O)cc1 | -2.2% | 6.6 | 8.7 | 16.1 | 9.7
CCCCC1=CC2=CC(=O)C(C)(OC(=O)c3cccs3)C(=O)C2=CO1 (configuration not stated) | -11.3% | -6.0 | / | 0.3 | /
O=C(CSc1nnnn1-c1ccccc1)NC(=O)Nc1ccc2c(c1)OCCO2 | -3.8% | -2.4 | -1.5 | 3.8 | 2.4
Cc1ccc(-c2nnn(CC(=O)N3CCN(c4ccccc4)CC3)n2)o1 | 2.9% | -0.5 | 4.9 | 3.5 | -3.2
COc1ccc2[nH]c(O)c(NC(C)=O)c2c1 | -3.7% | -1.0 | -66.4 | -2.4 | 3.1
CCc1nn2c(=O)cc(COc3ccc(/C=C4\C(=N)N5N=C(C)SC5=NC4=O)cc3)nc2s1 | ? | 2.6 | / | 98.2 | 0.8
CCOc1ccc(NC(=O)CC2C(=O)N(c3cccc(OC)c3)C(=O)N2C(C)C)cc1 (configuration not stated) | -7.3% | 0.1 | / | 0.5 | 4.5
CCn1cc(Br)c(C(=O)Nc2cccc(Cl)c2)n1 | 1.5% | 2.2 | -14.3 | -0.1 | -1.2
COc1ccc(NC(=O)CSc2cccc3cccnc23)c(OC)c1 | -2.3% | 4.1 | -28.5 | 0.9 | -2.2
CCOC(=O)N1CCN(C(=O)Cn2c(=O)sc3ccccc32)CC1 | -14.2% | -10.4 | -13.5 | ? | 0.3 | Arbovirus anti repeat=4.8
CCC1(CC)C(=O)NC(=O)NC1=NCCc1ccc(O)cc1 | -15.0% | -0.6 | -22.2 | -13.1 | 6.8
COCCOC(=O)c1c(C)oc2ccc(NS(=O)(=O)c3ccc(C(=O)O)cc3)cc12 | -9.1% | -8.2 | / | -3.5 | 6.8
Nc1ccc(S(=O)(=O)c2ccccc2)nc1 | / | -2.0 | / | -0.8 | /
O=C(COC(=O)Cc1ccc(S(=O)(=O)N2CCOCC2)s1)NCCc1ccccc1 | -12.1% | -0.3 | -21.6 | 4.2 | 8.4
CC(/C=C/c1ccc(N(C)C)cc1)=N\N=C1\NC(=O)CC(C(=O)Nc2ccccc2)S1 (configuration not stated) | 41.3% | -5.2 | -8.2 | 93.0 | 12.6
CSCCC(Nc1ccc(S(=O)(=O)N2CCOCC2)cc1[N+](=O)[O-])C(=O)OCC(=O)N(C(C)C)C(C)C (configuration not stated) | 5.1% | 3.9 | 13.3 | 3.6 | -0.3
Cc1ccc(NC(=S)NCc2ccccc2Cl)c(C)c1 | 3.3% | 3.4 | -6.4 | -1.7 | 12.6

Reprinted at random: 5 compounds from above.
SMILES | Mtb growth | RecA intein inh | YopH inh | Mtb betalactam | Arbovirus anti | others
CCOc1ccc(NC(=O)CC2C(=O)N(c3cccc(OC)c3)C(=O)N2C(C)C)cc1 (configuration not stated) | -7.3% | 0.1 | / | 0.5 | 4.5
CCc1nn2c(=O)cc(COc3ccc(/C=C4\C(=N)N5N=C(C)SC5=NC4=O)cc3)nc2s1 | ? | 2.6 | / | 98.2 | 0.8
Nc1ccc(S(=O)(=O)c2ccccc2)nc1 | / | -2.0 | / | -0.8 | /
COc1ccc2c(ccc[n+]2CC(=O)c2ccccc2)c1 | / | 2.4 | / | -3.6 | /
Cc1ccc(-c2nnn(CC(=O)N3CCN(c4ccccc4)CC3)n2)o1 | 2.9% | -0.5 | 4.9 | 3.5 | -3.2

Later entries.
SMILES | Mtb growth | RecA intein inh | YopH inh | Mtb betalactam | Arbovirus anti | others
O=C(Nc1ccc(O)cc1)c1ccc(C(=O)c2ccccc2)o1 | -5.2% | 1.9 | 9.3 | -3.9 | -9.2
COc1ccc(-c2cc3c(=O)n(CC(=O)NCCCN4CCC(Cc5ccccc5)CC4)ncn3n2)cc1 | / | 5.5 | / | ? | /
CC1(C)Cc2c(sc3c2c(=N)n(Cc2ccco2)c(=O)n3Cc2ccc(Cl)cc2)CO1 | 18.0% | 0.8 | -3.5 | 93.0 | 8.9 | Arbovirus anti repeat=-7.5
Cc1ccc(S(=O)(=O)CC(=O)N2CCCC2)cc1 | -0.3% | -0.5 | -9.5 | -4.5 | -2.3
CCN(CC)S(=O)(=O)c1cccc(-c2nnc(SCC(N)=O)n2CCc2ccccc2)c1 | -0.8% | 1.6 | -13.9 | 0.8 | -0.3
O=C(/C=C/c1ccccc1)NNC(=O)c1cccc(Cl)c1 | 1.2% | -0.2 | 5.8 | 8.1 | 5.1
C=CCN1C2CCCC1CC(NC(=S)Nc1cccc(OC)c1)C2 (configuration not stated) | -3.1% | -3.1 | / | -1.5 | -2.4
C=CCOc1ccc(/C=C/C(=O)OCC(=O)N(C)CC(=O)Nc2ccc(F)cc2)cc1 | / | 2.6 | / | -2.4 | /
CCCCC(=O)Nc1cc(-c2nc3ncccc3o2)ccc1C | 2.9% | -2.9 | / | -4.0 | -4.0
N#CCCN(Cc1ccccc1)C(=O)Nc1ccccc1 | -8.7% | 3.9 | / | 0.3 | /
Cc1cc(Cl)c(S(N)(=O)=O)cc1OCC(=O)NC1CCCCC1 | / | -1.5 | / | -10.0 | /
CCOc1ccc(NC(=NCc2ccc3c(c2)OCO3)SC2CC(=O)N(c3ccc(OCC)cc3)C2=O)cc1 (configuration not stated) | -1.1% | 1.0 | 11.0 | -4.5 | -20.8
Cc1ccc(S(=O)(=O)Oc2ccc(/C=C(/NC(=O)c3ccccc3)C(=O)Nc3ccccc3)cc2)cc1 | 9.7% | -0.5 | 19.1 | -10.2 | -8.4
Cc1[nH]c2ccccc2c1C(=O)CSc1nncn1C | -3.1% | -1.1 | -11.7 | -1.3 | 2.0
CCCOc1ccc(C2C(C(=O)c3cc4ccccc4o3)=C(O)C(=O)N2c2cc(C)on2)cc1 (configuration not stated) | / | -0.7 | / | 7.6 | /
CCCC(=O)Nc1ccc2oc(=O)ccc2c1 | 57.1% | -1.1 | / | 37.5 | -0.8
Cc1cccc(CN2C(=O)N/C(=C/c3cc(C)n(-c4cc(C)ccn4)c3C)C2=O)c1 | -7.9% | 0.3 | -21.8 | 0.3 | -12.1
COc1ccc(C(=O)CSc2nnc(CNC(=O)c3ccccc3F)n2C)cc1OC | / | 0.5 | / | -2.6 | /
O=C(Nc1nc(-c2ccccc2)cs1)c1ccc(N2CCOCC2)c([N+](=O)[O-])c1 | 5.2% | -0.1 | 2.2 | -3.5 | 16.4
O=C(O)c1ccc(/C=N/O)cc1 | -3.0% | -3.8 | / | -3.9 | /
